Source: PubChem BioAssay (several laboratories)
eIF4H FP inh: inhibitors of RNA binding by human eIF4H; inhibition, % at 35 µM; eIF4H fluorescence polarization binding assay; hit rate 0.94% among 290,000; AID 2012;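 active = 50% or more with normal probe brightness, or confirmed in later tests; inconclusive = above 50% with abnormal brightness, or retests that disagree; inactive = below 50% or failed in later tests; about a fifth of its hits are not listed in these tables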;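 also: calls also rest on retests at 20 µM and on dose response follow-up; 0% = protein and probe with vehicle and 100% = probe without protein; strong numbers were not always called active; many hits fall short of the cut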
UUG fidelity: modulators of start codon recognition fidelity in yeast; AID 602363; S. cerevisiae UUG-firefly luciferase reporter, luminescence/redox ratio; hit rate 0.13% among 350,000; activity score, % at 18.7 µM;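 active = replicate mean at a twofold rise or more, about +100% in these data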;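 also: firefly luciferase made from a UUG start codon reports start codon fidelity; reporter light over untreated wells divided by growth signal over untreated wells; some hits fall short of that in this replicate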
PABP FP inh: blocks human PABP binding to poly(A) RNA. P11940. fluorescence polarization. inhibition, % at 35 µM. hit rate 1% among 290,000;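 active = 50% or more with normal probe brightness, or confirmed in later tests; inconclusive = above 50% with abnormal brightness, or retests that disagree; inactive = below 50% or failed in later tests; about a fifth of its hits are not listed in these tables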;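 also: calls also rest on retests at 20 µM and on dose response follow-up; controls were probe without protein and protein plus probe with vehicle; some compounds called inactive have numbers as strong as hits; many hits fall short of the cut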
Env fusion inh: blocks HIV Env-driven cell-cell fusion; hit rate 1.1% among 360,000; inhibition, % at 12.3 µM; HeLa-JRFL Env/CEM21 cell fusion, luciferase; AID 651610;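 active = mean replicate inhibition score of at least 50 and every replicate individually at or above 50; inconclusive = only one of the two criteria met; inactive = mean below 50 and not all replicates reaching 50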;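 also: 0% = plate neutral controls and 100% = maraviroc near 300 nM; one replicate is shown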
MT1-MMP act inh: inhibitors of human MT1-MMP activation. HT1080 RFP-PRO-GFP cells, GFP/RFP ratio fluorescence, overnight; percent of plate control window, DMSO zero. hit rate 0.061% among 360,000. GFP/RFP ratio change, % at 20 µM. P50281;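 active = GFP/RFP ratio change of at least 30% with cell ATP level not reduced by more than half and red fluorescence within 50% of control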; also: strong numbers were not always called active
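Material – HT1080 RFP-PRO-GFP cells · Control set – DMSO wells and RFP-L50D-GFP cells · Incubation – overnight cell settling, then overnight compound exposure, 37 °C, 5% CO2 · Compound dosing – single-point 20 µM compound, 1% DMSO · Read-out – GFP/RFP fluorescence ratio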
CSC inhib: cancer stem cell inhibition; cancer stem cell-like cells viability, luminescence; inhibition, % at 7.5 µM; hit rate 1.1% among 300,000; AID 2717;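 active = mean at 75% or more and at least half the replicates too; inconclusive = mean and replicates disagree; tested in HMLE shEcad cells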;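 also: 0% = median of negative and 100% = median of positive control wells; the first replicate is given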
Rce1 inhib: inhibitors of yeast Ras-converting enzyme. Q03530. yeast membranes, quenched prenylated peptide cleavage fluorescence. calls only. hit rate 0.27% among 290,000. AID 2563;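 active = fall in fluorescence gain of 50% or more versus controls, with final raw signal at or below 3038400; inconclusive = same 50% fall but final raw signal above 3038400; inactive = fall in fluorescence gain under 50%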;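 also: plate controls were neutral control wells for no effect and wells lacking membranes for full effect; tested at 10 µM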
Target sequence (Q03530 whole entry, looked up): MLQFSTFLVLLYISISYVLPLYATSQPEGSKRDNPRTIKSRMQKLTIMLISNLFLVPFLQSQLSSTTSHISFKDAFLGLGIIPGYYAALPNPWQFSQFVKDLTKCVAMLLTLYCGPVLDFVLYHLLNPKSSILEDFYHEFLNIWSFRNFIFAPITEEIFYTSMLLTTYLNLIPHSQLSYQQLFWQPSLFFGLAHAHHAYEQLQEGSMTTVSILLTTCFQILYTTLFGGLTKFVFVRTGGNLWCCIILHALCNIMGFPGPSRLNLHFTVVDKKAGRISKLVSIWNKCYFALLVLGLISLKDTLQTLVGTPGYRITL
MT1-MMP act inh RFP: second read-out of MT1-MMP act inh, no call of its own (marks repeat the call); RFP signal change, %; measured here: RFP expression control read;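 0 = vehicle wells; hits needed this value within 50% of zero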
Active calls of the source: *; i = inactive; ? = inconclusive; nt = no result given. The list is partial; the hit share may differ from the screen's.

structure	Rce1 inhib	UUG fidelity	MT1-MMP act inh RFP	PABP FP inh	eIF4H FP inh	MT1-MMP act inh	Env fusion inh	CSC inhib
C/C=C\C=C/C(=O)Nc1cccc(C2=NOC3(C2)C[C@@H](C(N)=O)N(C(=O)C2(C)CC2)C3)c1 (some centres not stated)	i	0	2	5	9	-4	10	8
C[C@H](CO)N1C[C@H](C)[C@H](CN(C)S(=O)(=O)c2cn(C)cn2)Oc2ccc(NC(=O)Nc3ccc(C(F)(F)F)cc3)cc2CC1=O	nt	-8	-5	nt	nt	13	-134	50
COc1ccc(Nc2nc(N)nc(CSc3nccc(C)n3)n2)cc1	i	-9	0	-13	-6	7	nt	-4
Cc1ccc2nc(-c3ccc(NC(=O)COCC(=O)O)cc3)sc2c1	i	-11	3	14	-2	1	-16	-1
CC(NC(=O)c1ccc(C(F)(F)F)cc1)C(c1ccccc1)N1CCOCC1 (configuration not stated)	i	-20	1	4	-1	2	5	0
O=S1(=O)CC/C(=N/Nc2ccccn2)c2cc(F)ccc21	i	nt	-2	2	-3	-1	-10	11
CCOC(=O)c1ccc(-n2c(CC)nc3ccccc3c2=O)cc1	i	nt	nt	-3	-5	nt	nt	-4
Cc1nc(S(=O)(=O)c2ccc(Cl)cc2Cl)nc2c1CCC2	i	-19	0	-8	0	-2	nt	-10
O=C(NC1CCC(O)CC1)c1cccc2cccnc12 (configuration not stated)	i	nt	1	-1	-4	0	-4	2
Cc1cccc(CC(C)NC(=O)CCc2nnc(-c3ccccc3)o2)n1 (configuration not stated)	i	-13	4	-10	3	-4	8	-4
Cc1oc2ccc(NS(=O)(=O)c3ccccc3)cc2c1C(=O)Nc1ccccc1	i	nt	-1	9	-12	-1	0	6
O=C1CSC(=S)N1/N=C/c1ccc(Cl)c([N+](=O)[O-])c1	i	nt	nt	32	49	nt	nt	31
CCOc1ccc(Br)cc1S(=O)(=O)NCCN1CCCC1	i	8	-1	7	-11	-1	4	-6
CC(NC(=O)c1cccc(S(=O)(=O)N2CCN(C)CC2)c1)C1CC2CCC1C2 (configuration not stated)	i	nt	6	-2	-11	6	-2	-11
COCCC(=O)N1CCCC(CCC(=O)NCc2ccc(F)c(F)c2)C1 (configuration not stated)	i	-14	0	-4	0	-2	-10	-3

Additional records:
structure	Rce1 inhib	UUG fidelity	MT1-MMP act inh RFP	PABP FP inh	eIF4H FP inh	MT1-MMP act inh	Env fusion inh	CSC inhib
Cc1cccc(OCc2nnc(N)s2)c1C	i	-15	3	-9	-8	4	nt	-13
Oc1cccc(/C=N/c2c(-c3ccco3)nc3ccccn23)c1	i	nt	5	?	?	-18	nt	-6
COC(=O)c1coc(-c2ccc(OC)cc2)c1C(=O)OC	i	nt	-1	-7	-3	-3	nt	-8
CN1CCC(N(C)C(=S)NC(=O)C23CC4CC(CC(C4)C2)C3)CC1	i	-15	2	-18	-8	-1	-27	nt
CC1(C)C2CCC13CS(=O)(=O)N[C@@H]3C2 (some centres not stated)	i	-10	4	-10	2	0	1	-12
CC(=O)c1cccc(NC(=O)c2noc3c2CCc2ccccc2-3)c1	i	-23	3	1	-3	5	-293	-8
O=C(NC1CCOC1)c1ccc(OC2CCN(CCc3ccccc3)CC2)cc1 (configuration not stated)	i	503*	-2	-1	7	-2	-4	0
c1ccc(Cn2nnc3c(NCCN4CCOCC4)ncnc32)cc1	i	nt	5	-2	-3	2	nt	-3
C=C(C)Cn1cnc2cc(C)c(C)cc21	i	-22	0	-12	-13	2	8	-10
COc1ccc(CCNC(=O)c2ccccc2Cl)cc1OC	i	4	1	0	-5	-2	0	-5
COc1ccc(N2CCN(CCN3C(=O)c4ccccc4C3=O)CC2)cc1	i	-4	4	-1	-12	2	0	3
O=C(COc1ccc([N+](=O)[O-])cc1)NCCc1nc2ccccc2[nH]1	nt	8	2	2	6	1	8	-8
COc1cccc(CNC(=O)COC(=O)c2ccc(-c3ccc(O)cc3)cc2)c1	nt	2	5	nt	nt	12	28	nt
Cc1nc(SCc2ccc(F)cc2)n[nH]1	i	-16	4	10	-5	0	-5	-8
C/C(=N\NC(=O)CN1CCN(Cc2ccc(C)cc2)CC1)c1ccncc1	i	-3	2	-1	-4	-1	6	7

Carrying on.
structure	Rce1 inhib	UUG fidelity	MT1-MMP act inh RFP	PABP FP inh	eIF4H FP inh	MT1-MMP act inh	Env fusion inh	CSC inhib
COc1ccc(C2/C(=C(/O)c3ccc(S(=O)(=O)N4CCOCC4)cc3)C(=O)C(=O)N2CCN2CCOCC2)cc1 (configuration not stated)	i	-1	1	1	-13	-1	-2	nt
CCCCc1n[nH]c2c1/C(=N/OCC)CC(C)(C)C2	i	-16	-3	7	-2	-1	23	2
CC(C)(C)NCC(O)COc1cccc2[nH]c(=O)[nH]c12 (configuration not stated)	i	-14	2	nt	nt	0	5	-7
O=C(O)CCCNC(=O)CCn1nnc2ccccc2c1=O	i	-6	6	-14	-4	-1	-2	-11
CCC(=O)Nc1cccc(-n2nnnc2SCC(=O)N(C(C)C)C(C)C)c1	i	11	0	0	-1	3	5	5
O=C(CSc1nc2ccccc2c(=O)[nH]1)Nc1ccc(N2CCOCC2)c(Cl)c1	i	nt	-4	-7	-2	0	6	-4
CCCCOC(=O)c1ccc(NS(=O)(=O)c2cc(-c3nnnn3CC)ccc2OC)cc1	i	-5	-8	6	0	3	nt	-16
COc1ccc(NS(=O)(=O)c2cccc(C(=O)NCc3cccnc3)c2)cc1	i	-14	-7	nt	nt	-2	6	-6
O=C(CN1C(=O)CSC1=O)N1CCc2ccccc2C1	i	59	6	11	-3	-1	-46	-13
Cc1cc(-c2nn(-c3ccccc3F)cc2CN2CCCC(CO)C2)c(C)s1 (configuration not stated)	i	-3	-7	1	-2	-3	-5	4
CCOc1nc(C)ccc1-c1noc(-c2cccnc2)n1	i	-14	6	-1	-3	-2	1	-12
CN(C)c1ccc(/C=N/N=C2/SC(CC(=O)O)C(=O)N2c2ccc(O)cc2)cc1 (configuration not stated)	i	nt	5	14	-3	2	-5	1
CC(=O)Nc1cccc(/C(C)=N/NC(=O)c2ccc3c(c2)OCO3)c1	i	nt	0	2	4	3	-8	-15
O=C(Nc1ccc(S(=O)(=O)N2CCCCC2)cc1)c1cnccn1	i	-14	2	-5	-2	8	36	nt
O=[N+]([O-])c1cccnc1Nc1ccc(Cl)cc1	nt	-11	5	nt	nt	1	4	nt

Additional entries.
structure	Rce1 inhib	UUG fidelity	MT1-MMP act inh RFP	PABP FP inh	eIF4H FP inh	MT1-MMP act inh	Env fusion inh	CSC inhib
CCCCNc1cnn(-c2ccccc2)c(=O)c1Cl	i	nt	9	17	-2	6	-1	6
CCOC(=O)Cn1cc(/C=N/NC(=O)c2cc3ccccc3o2)c2ccccc21	i	nt	2	8	-9	7	-3	-34
COc1ccc(NC(=S)NCCCN2CCCC2=O)c(OC)c1	i	nt	-5	-3	-2	-1	-3	-15
O=C(/C=C/c1ccc[nH]1)c1ccc(F)cc1	i	nt	7	30	48	0	-33	-2
COc1cccc(NC(=O)CSc2nc3scc(C)c3c(=O)[nH]2)c1	i	-10	-6	6	13	0	-16	10
CCOC(=O)c1cccc(NC(=O)c2ccc(F)cc2F)c1	i	-19	-2	nt	nt	2	-113	16
Cc1ccc(Cc2nnc(SCC(=O)Nc3ccccc3Cl)[nH]c2=O)cc1	i	-1	5	nt	nt	0	1	1
CCOC(=O)C1Nc2c(cc(C(F)(F)F)cc2[N+](=O)[O-])C2c3ccccc3CC12 (configuration not stated)	i	-12	1	nt	nt	-5	16	20
COCCNC(=S)N(CCCO)Cc1cc2cc3c(cc2[nH]c1=O)OCO3	nt	-12	2	nt	nt	0	14	nt
CCCOC(=O)c1ccc(NC(=O)c2cc(OC)c(OC)c(OC)c2Br)cc1	i	-20	-6	-7	-11	2	-39	-5
COc1ccc(NC(=O)CN2C(=O)c3cccc4cccc2c34)c(OC)c1	i	-11	-3	-9	-1	0	nt	-13
COc1cc(C(=O)N2CCN(C(=O)c3ccco3)CC2)cc(OC)c1OC	i	-3	-2	-2	-1	-3	nt	0
Nc1ncnc(Nc2cc(C(F)(F)F)cc(C(F)(F)F)c2)n1	i	nt	0	-9	-9	4	-8	-8
CC1CCCN(C(=O)COC(=O)C2=COCCO2)C1 (configuration not stated)	nt	-8	-3	nt	nt	-1	nt	-5
Cn1c(C(=O)N2CCC(C(=O)NCc3ccccc3)CC2)cc2sccc21	i	-5	-3	10	0	2	-4	-5

Other entries.
structure	Rce1 inhib	UUG fidelity	MT1-MMP act inh RFP	PABP FP inh	eIF4H FP inh	MT1-MMP act inh	Env fusion inh	CSC inhib
Cc1ccc(OCC(=O)N2CCCCCCC2)cc1	i	-10	1	3	-5	-3	-1	-2
COc1cc2ncnc(NCCCN3CCOCC3)c2cc1OC	i	nt	4	14	14	6	-6	2
COc1ccc([N+](=O)[O-])cc1NC(=O)C(C)c1ccccc1 (configuration not stated)	i	nt	5	-8	-3	0	14	-18
O=C(NCc1cc(Cl)cc(Cl)c1)c1ccc2nc([C@H]3C[C@H](O)[C@@H](CO)O3)[nH]c2c1	nt	-5	-1	nt	nt	2	7	nt
Cc1ccccc1/C=C/C12NC(=O)CN1c1ccccc1C2(C)C (configuration not stated)	i	15	-7	-12	-14	1	8	7
CCC(C)n1c(SCC(=O)N(CC)c2c(N)n(Cc3ccccc3)c(=O)[nH]c2=O)nc2ccccc2c1=O (configuration not stated)	nt	-42	-3	nt	nt	-7	6	nt
O=C(NCc1nc2ccccc2[nH]1)c1cccc(S(=O)(=O)N2CCCC2)c1	i	-16	0	6	3	-2	-52	nt
O=C(Nc1ccc2nc(-c3ccc4nc[nH]c4c3)[nH]c2c1)c1cccs1	i	-13	10	7	2	19	-27	-13
CCn1ncc([N+](=O)[O-])c1C(=O)Nc1nc2cccc(C)c2s1	i	nt	2	4	-4	-2	-9	8
Cc1cccc(C)c1NC(=O)c1ccc(N2CCCC2=O)cc1	nt	4	1	nt	nt	-3	nt	-9
CCOc1ccc2[nH]c(=O)c(CN(CC3COCCO3)C(=O)C3CC3)cc2c1 (configuration not stated)	i	-5	-1	4	-9	-1	-43	-9
CC1=C/C(=N\S(=O)(=O)c2ccccc2)C(C(C)C)=CC1=O	i	nt	2	-15	3	-3	-11	14
CC(=O)NC(Cc1ccccc1)C(=O)N1CCN(C(=O)c2cccs2)CC1 (configuration not stated)	i	7	3	-8	-1	2	-1	nt
O=c1cc(CO)occ1OCc1c(F)cccc1Cl	i	-22	3	-2	-6	-3	4	-12
NS(=O)(=O)c1cccc(C(=O)N2CCCc3ccccc32)c1	nt	-8	4	nt	nt	5	-1	nt
CC1=C(C(=O)N(C)C)CC(CC(=O)NCCN2CCOCC2)C(=O)N1CCCN1CCCC1=O (configuration not stated)	nt	52	5	nt	nt	2	-5	nt
